# Bioassay records (PubChem)
# RE007 growth inh: less growth of the S. pombe RE007 Vpr strain; Potency, µM (highest dose often 92.2 µM), inactives show at the highest dose activity change, negative = less growth; actives 0.21% (n = 360,000); AID 651644; S. pombe RE007 Vpr strain, BacTiter-Glo ATP luminescence, 24 h; control for the full effect not named in the record; active = well fitted falling curve with a large enough effect; inconclusive = small, poorly fitted or top-dose-only effect; inactive = no such curve, though single readings can be large or run the other way;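 note: % is set by controls: 0 for no effect and ±100 for the full control effect; nearly all actives have a fitted effect of over 50% in size; the assay follows cell death caused by Vpr and the record does not say whether a fall means rescue or toxicity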
#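 Fission yeast RE007 carrying one integrated HIV-1 vpr copy, seeded at OD 0.01 in PMG+AL medium with 23 nL pinned compound. Grown 24 h at 30 degrees; viability read by BacTiter-Glo luminescence after 5 min.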
# Cruzain noTriton: inhibitors of Trypanosoma cruzi cruzain without detergent; actives 2.3% (n = 200,000); purified cruzain, Z-FR-AMC fluorescence, no detergent; Potency, µM, without a hit: max response, negative = inhibition, hits mostly inhibitors; AID 1476; active = well fitted curve in the direction sought with a large enough effect; inconclusive = small, poorly fitted or top-dose-only effect, or another doubt; inactive = no such curve, though single readings can be large; an effect the other way counts as inactive or inconclusive;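 note: plate controls were enzyme without inhibitor for no effect and buffer without enzyme for full effect; nearly all actives have a fitted effect of over 40% in size; top concentration of the series not given in the record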
# Target sequence (P25779 123-467 limits assumed): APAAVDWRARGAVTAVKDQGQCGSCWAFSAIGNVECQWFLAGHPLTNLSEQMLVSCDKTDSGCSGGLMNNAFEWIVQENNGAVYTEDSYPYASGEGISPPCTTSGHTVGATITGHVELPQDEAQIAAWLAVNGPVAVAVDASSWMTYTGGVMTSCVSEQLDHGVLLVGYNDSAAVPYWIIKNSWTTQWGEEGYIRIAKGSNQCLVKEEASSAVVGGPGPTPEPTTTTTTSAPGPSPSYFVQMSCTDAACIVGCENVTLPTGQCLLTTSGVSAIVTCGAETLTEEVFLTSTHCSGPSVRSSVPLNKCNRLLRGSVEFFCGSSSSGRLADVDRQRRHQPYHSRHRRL
#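 Detergent-free condition (0.00005% Triton X-100) in acetate buffer pH 5.5 with DTT. 1.5 nM enzyme and compound were pre-mixed 15 min, then 2 uM Z-FR-AMC substrate added; reaction progress from fluorescence change between first and third reads (60 s).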
# MARV entry inh: inhibitors of Marburg virus binding or cell entry; actives 1.8% (n = 300,000); AID 540276; Potency, µM (top dose mostly 37.8 µM), for the others: at the highest dose activity change, negative = inhibition, hits mostly inhibitors; Marburg virus pseudotyped entry inhibition, cell reporter; control for the full effect not named in the record; about a third of the inactives were read at about 46 µM; active = well fitted inhibition curve with a large enough effect; inconclusive = small, poorly fitted or top-dose-only effect, or effect the other way; inactive = flat fitted curve, though single readings scatter; tested in HEK293 cells; about a fifth of its hits are not listed in these tables; note: % is set by controls: 0 for no effect and ±100 for the full control effect; luciferase read-out
# LASV entry inh: Lassa virus entry inhibition | Lassa virus pseudotype entry inhibition, cell reporter; control for the full effect not named in the record | Potency, µM (series often up to 37.9 µM), without a hit: at the top dose activity change, negative = inhibition, actives largely listed as inhibitors | actives 1.2% (n = 300,000); active means well fitted inhibition curve with a large enough effect; inconclusive means small, poorly fitted or top-dose-only effect, or effect the other way; inactive means flat fitted curve, though single readings scatter; tested in HEK293 cells; note: % is set by controls: 0 for no effect and ±100 for the full control effect; nearly all actives have a fitted effect of over 50% in size; luciferase read-out
# StopGo reporter: FMDV 2A StopGo reporter, luciferase signal. human cells with a luciferase reporter of 2A StopGo recoding; control for the full effect not named in the record. Potency, µM (doses to about 57.9 µM), inactives show top-dose signal change, negative = less light. actives 1.2% (n = 410,000). AID 1159524; active = well fitted falling curve with a large enough effect; inconclusive = small, poorly fitted or top-dose-only effect; inactive = no such curve, though single readings can be large or run the other way; tested in HEK293T cells; note: % is set by controls: 0 for no effect and ±100 for the full control effect; nearly all actives have a fitted effect of over 45% in size; luciferase light after 4 h
# Cruzain Triton: cruzain (T. cruzi) inhibition with detergent; purified cruzain, Z-FR-AMC fluorescence, 0.01% Triton; P25779; actives 0.43% (n = 200,000); Potency, µM, without a hit: max response, negative = inhibition, hits mostly inhibitors; active = well fitted curve in the direction sought with a large enough effect; inconclusive = small, poorly fitted or top-dose-only effect, or another doubt; inactive = no such curve, though single readings can be large; an effect the other way counts as inactive or inconclusive;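 note: plate controls were neutral wells for no effect and buffer without enzyme for full effect; nearly all actives have a fitted effect of over 40% in size; top concentration of the series not given in the record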
#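 Z-FR-AMC hydrolysis (2 uM substrate) by cruzain (1.5 nM) monitored kinetically at ex 360/em 450 nm after 15 min room-temperature compound exposure; 0.01% Triton X-100, pH 5.5, 5 mM DTT.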
# NS1 inh: inhibitors of influenza NS1 protein function; S. cerevisiae slowed by influenza A NS1, growth recovery by OD600; Potency, µM (series often up to 46.1 µM), for the others: at the top dose activity, positive = more growth; actives 0.4% (n = 270,000); AID 2326; note: actives are rising curves; nearly all actives have a fitted effect of over 50% in size
#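 S. cerevisiae expressing influenza A NS1, grown in glucose, washed, then diluted 1:100 into pH 6.0 -URA galactose medium with 23 nl compound. Growth recovery read as OD600; NS1-free strain serves as control.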
# SARS PLpro yeast: inhibitors of SARS-CoV papain-like protease in yeast; Potency, µM (titrated, usually from 32.9 µM), for inactives: at the highest dose activity, positive = growth rescue; actives 0.19% (n = 330,000); S. cerevisiae expressing SARS-CoV PLpro, growth rescue; control for the full effect not named in the record; note: 0% is about no effect; nearly all actives have a fitted effect of over 55% in size; growth read by luminescence after 48 h
# An asterisk follows results filed as active; ? = inconclusive; nt = no result given; & = joins results of further samples; [ ] = dose if it differs, or a comment. Unless noted, calls come from the whole dose curve; as a rule, active means well fitted rising curve with a large enough effect; inconclusive means small, poorly fitted or top-dose-only effect; inactive means no such curve, though single readings can be large or run the other way. Potency is the fitted concentration of half-maximal effect.
SMILES,RE007 growth inh,Cruzain noTriton,MARV entry inh,LASV entry inh,StopGo reporter,Cruzain Triton,NS1 inh,SARS PLpro yeast
CC(C)c1ccc(C2(C)NC(=O)N(CC(=O)NCC3COc4ccccc4O3)C2=O)cc1 (stereo not given),4%,nt,-53%,-23%,0%,nt,nt,-1%
COc1cccc(CN2CCNC(=O)C2CC(=O)NC2Cc3ccccc3C2)c1 (stereo not given),-17%,nt,nt,nt,-13%,nt,7%,0%
COC(=O)c1cccc(NC(=O)CSc2nnc(-c3ccco3)o2)c1,9%,nt,?,7%[46.1 µM],7%,nt,-1%,0%
COC(=O)c1cccc(NC2=NS(=O)(=O)c3ccccc32)c1,nt,-6%,nt,20%[46.1 µM],2%,0.7%,nt,nt
COC(=O)c1cccc(NC(=O)/C(=C\c2ccccc2)NC(=O)c2ccccc2Cl)c1,?,-5%,-27%,?,nt,-1.2%,1%,-16%
COc1ccc(-c2nc3scc(CCNS(=O)(=O)c4ccc(Oc5ccccc5)cc4)n3n2)cc1,nt,-1%,nt,14%[46.1 µM],5%,-3.9%,nt,nt
COc1ccc(NC(=O)c2ccc(-c3ccc(C)c4ccccc34)o2)cc1,-7%,?,25%,6%,17%,-5.7%,-20%,-10%
CC1CCN(C(=O)CSc2ccc(-c3ccccc3)nn2)CC1,-27%,nt,22%,?,-5%,nt,nt,-7%
COc1cc(OC)cc(C(=O)NC(=S)N2C[C@H]3C[C@H](C2)c2cccc(=O)n2C3)c1,-1%,nt,nt,nt,-13%,nt,-4%,7%
CC1CCN(C(=O)c2ccc(N3CC4CC(C3)c3cccc(=O)n3C4)c([N+](=O)[O-])c2)CC1 (stereo not given),-16%,14%,?,-3%,0%,-2.5%,-2%,10%
Nn1c(SCc2ccccc2)nc2c(cnn2-c2ccccc2)c1=O,-4%,nt,nt,nt,22%,nt,-8%,-1%
Cc1ccc(-c2nc(SCC(=O)NCC3CCCO3)c3c(=O)n(C)c(=O)n(C)c3n2)cc1 (stereo not given),nt,-5%,nt,0%[46.1 µM],-9%,3.8%,nt,nt
CCc1c(O)nc(SCC(=O)Nc2ccccc2OC)n(-c2ccccc2C)c1=O,-16%,nt,8%[46.1 µM],14%[46.1 µM],20%,nt,25%,2%
O=C(NC1CCCN(C2Cc3ccccc3C2)C1)c1ccc(F)cc1Cl (stereo not given),-1%,nt,nt,nt,9%,nt,11%,?
COC(=O)CC1(Cc2ccccc2)C(=O)NC(=O)NC1=O,-1%,-10%,4%,8%,-19%,6.6%,-3%,3%
CCCCN(C)C(=O)C(Cc1ccccc1)NS(=O)(=O)c1ccc2c(c1)CCC(=O)N2 (stereo not given),6%,-5%,1%,nt,-4%,3.7%,-13%,-7%
COc1cccc(C(=O)NC(=S)Nc2ccc(Cl)cc2C(=O)O)c1,-9%,nt,2%[46.1 µM],-9%,-11%,nt,-2%,1%
CC(C)C[C@H](NC(=O)C1CC(=O)N(c2ccc3c(c2)OCCO3)C1)C(=O)N1CCCCC1 (stereo not given in full),1%,nt,nt,nt,-18%,nt,-1%,-5%
CCOC(=O)CSc1nnc([C@H](CC(C)C)NC(=O)OC(C)(C)C)o1,-3%,-15%,0%&0%,17%,-3%,-14%,-13%,1%
CSCCC(C(=O)N1C[C@]2(C)C[C@H]1CC(C)(C)C2)N1C(=O)c2ccccc2C1=O (stereo not given in full),0%,4%,?,0%,31%[activator],-1.4%,-5%,-7%
Cc1ccc(C)c(OCc2cc(C(=O)NC(C)c3cnn(C)c3)no2)c1 (stereo not given),16%,nt,-1%[46.1 µM],-2%[46.1 µM],-13%,nt,-1%,0%
Cc1cc(NCCNC2=CC(=O)CCC2)nc2ccccc12,11%,-12%,-7%,21%,-10%,-6.6%,8%,-7%
CC(C)NS(=O)(=O)c1ccc(OCC(N)=O)c(Cl)c1,40%,2%,-6%,-6%,-10%,0.3%,0%,-3%
CCC(=O)NC(C)c1nc2ccccc2n1C (stereo not given),-16%,-8%,30%,-4%,-11%,4.7%,-4%,-1%
Cc1ccc(OCc2nc(C#N)c(NCc3ccc4c(c3)OCO4)o2)cc1,-2%,11%,?,?,0%,-1.0%,-61%,-10%

# Copied from the list.
# In Cruzain noTriton, COC(=O)CC1(Cc2ccccc2)C(=O)NC(=O)NC1=O has the entry -10%
# In SARS PLpro yeast, CC1CCN(C(=O)CSc2ccc(-c3ccccc3)nn2)CC1 has the entry -7%
# In SARS PLpro yeast, COc1cccc(C(=O)NC(=S)Nc2ccc(Cl)cc2C(=O)O)c1 has the entry 1%
# In SARS PLpro yeast, CSCCC(C(=O)N1C[C@]2(C)C[C@H]1CC(C)(C)C2)N1C(=O)c2ccccc2C1=O (stereo not given in full) has the entry -7%

# Additional results.
SMILES,RE007 growth inh,Cruzain noTriton,MARV entry inh,LASV entry inh,StopGo reporter,Cruzain Triton,NS1 inh,SARS PLpro yeast
O=C(CC1CC2CCC1C2)OCC(=O)c1c[nH]c2ccccc12 (stereo not given),?,-6%,13%,-27%,25%,-5.4%,-138%,-41%
CC(C)CC(=O)NC(=S)Nc1ccccc1C(=O)Nc1ccccc1,5%,-5%,?,-4%,nt,-1.2%,2%,4%
O=C(CCCn1c(=O)c2ccccc2n(CC(=O)N2CCN(c3ccccc3)CC2)c1=O)NCc1ccco1,9%,nt,-1%[46.1 µM],0%,-20%,nt,nt,-3%
COc1ccc(C(CC(=O)Nc2ncccc2C)N2Cc3ccccc3C2=O)cc1OC (stereo not given),-2%,0%,-13%[46.1 µM],-8%&7%[46.1 µM],24%&41%,-0.3%,0%,1%
Cc1cccc(C2C=C(c3ccc(C)c(C)c3)Nc3nnnn32)c1 (stereo not given),nt,-5%,nt,-26%[46.1 µM],7%,0.9%,nt,nt
COc1ccccc1NC(=S)NCC1CCCO1 (stereo not given),4%,-6%,5%[46.1 µM],-1%,9%,-2.0%,2%,-4%
CCCCOc1ccc(C(=O)NCCCC(=O)N2CCCCC2)cc1,15%,10%,6%,?,nt,0.9%,-7%,-1%
COc1ccc(C)cc1NCc1ccc([N+](=O)[O-])cc1,5%,nt,2%,?,-11%,nt,-7%,2%
CS(=O)(=O)N(CC(=O)NCCSCc1ccccc1)c1ccc2c(c1)OCO2,4%,nt,-26%[46.1 µM],-11%,-16%,nt,nt,-7%
COc1ccc(S(=O)(=O)N2CCN(c3nc(C)cc(C)n3)CC2)cc1,1%,nt,nt,nt,7%,nt,-5%,-5%
COc1ccccc1CCC(=O)OCC(=O)Nc1cccc(S(=O)(=O)N2CCOCC2)c1,-10%,nt,-3%[46.1 µM],17%,-14%,nt,nt,nt
Cc1ccc(C)c(S(=O)(=O)N2CCCOC2CNC(=O)C(=O)NCc2ccccn2)c1 (stereo not given),-18%,nt,-3%,-7%,-14%,nt,-11%,-2%
COc1ccc(C(=O)NCc2nnnn2-c2ccc(C)c(C)c2)cc1,nt,-7%,nt,-14%[46.1 µM],-2%,3.6%,nt,nt
C=CCc1c(C)nc2c(C(=O)O)cnn2c1C,-1%,0%,-12%,?,6%,3.0%,-3%,2%
Cc1cc(N)n2nc(-c3ccccc3)c(-c3ccccc3)c2n1,-2%,nt,nt,nt,-14%,nt,-108%,2%
CSc1cccc(NS(=O)(=O)c2cccs2)c1,0%,0%,1%,?,nt,-0.4%,-10%,-5%
NS(=O)(=O)c1ccc2nc(NC(=O)C3CCCO3)sc2c1 (stereo not given),-3%,-16%,?,5%,55%[activator],-3.4%,23%,-9%
COC(=O)C1=NN(C(=O)c2cccc(Br)c2)C(O)(c2ccc(Cl)cc2)C1 (stereo not given),18%,nt,nt,nt,4%,nt,3%,-4%
COc1ccc(C(=O)NCC(c2ccc3c(c2)OCO3)N2CCN(c3ccc(OC)cc3)CC2)cc1 (stereo not given),15%,nt,?,?,-9%,nt,nt,0%
COc1ccccc1-c1nnc(SCC(=O)NCc2ccco2)n1N,12%,nt,0%[46.1 µM],nt,-2%,nt,nt,0%
COc1ccc(CNC(=O)CCC(=O)Nc2nnc(CC(C)C)s2)cc1,23%,nt,-2%[46.1 µM],?,-5%,nt,0%,0%
Cc1cccc(NS(=O)(=O)c2ccc3c(c2)OCC(C(=O)N2CCCC2)O3)c1C (stereo not given),nt,4%,nt,-9%[46.1 µM],-3%,-2.1%,nt,nt
O=C(c1ccc(CS(=O)(=O)Cc2ccccc2)cc1)N1CCCCC1,18%,nt,7%[46.1 µM],3%[46.1 µM],-5%,nt,5%,3%
COc1cc(/C=C/c2ccc3c([N+](=O)[O-])cccc3n2)ccc1OCC(=O)O,-2%,nt,nt,nt,6%,nt,-48%,0%
Cc1sc2ncn(CC(=O)NCc3ccccn3)c(=O)c2c1S(=O)(=O)N1CCOCC1,17%,20%,-2%&-2%,11%,4%,2.8%,-2%,17%
O=C(NCCCN1CCOCC1)c1ccc2c(c1)N(Cc1cccc(F)c1)C(=O)c1ccccc1S2,2%,nt,nt,nt,-21%,nt,2%,-3%
CCOc1ccccc1NC1=C(Cl)C(=O)N(c2ccccc2)C1=O,-3%,-12%,-4%,7%,-22%,-6.9%,5%,-11%
O=C(Oc1ccccc1C(=S)N1CCOCC1)c1cccc([N+](=O)[O-])c1,11%,nt,?,10%,-1%,nt,-5%,0%
Cc1cc(Cl)ccc1OCC(=O)NCCOc1nc(N2CCOCC2)nc(N2CCOCC2)n1,-10%,?,-12%,-14%,-18%,1.6%,3%,-5%

# Rewritten as tab-separated lines: part of the list above
smiles	RE007 growth inh	Cruzain noTriton	MARV entry inh	LASV entry inh	StopGo reporter	Cruzain Triton	NS1 inh	SARS PLpro yeast
Nn1c(SCc2ccccc2)nc2c(cnn2-c2ccccc2)c1=O	-4%	nt	nt	nt	22%	nt	-8%	-1%
CC1CCN(C(=O)CSc2ccc(-c3ccccc3)nn2)CC1	-27%	nt	22%	?	-5%	nt	nt	-7%
